Source: PubChem
GALR2 ag: agonists of human galanin receptor 2 (GALR2) | O43603 | GALR2-expressing cells, agonist activation read-out | activation, %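 (tested at 5 µM)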 | 0.48% of 140,000 active | AID 803;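 active = above mean plus 3 SD of all compounds, about 5% in these data, not always enough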;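 also: 0% = vehicle buffer wells and 100% = reference agonist at full effect; tested in CHO reporter cells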
Target sequence (O43603 whole entry, looked up): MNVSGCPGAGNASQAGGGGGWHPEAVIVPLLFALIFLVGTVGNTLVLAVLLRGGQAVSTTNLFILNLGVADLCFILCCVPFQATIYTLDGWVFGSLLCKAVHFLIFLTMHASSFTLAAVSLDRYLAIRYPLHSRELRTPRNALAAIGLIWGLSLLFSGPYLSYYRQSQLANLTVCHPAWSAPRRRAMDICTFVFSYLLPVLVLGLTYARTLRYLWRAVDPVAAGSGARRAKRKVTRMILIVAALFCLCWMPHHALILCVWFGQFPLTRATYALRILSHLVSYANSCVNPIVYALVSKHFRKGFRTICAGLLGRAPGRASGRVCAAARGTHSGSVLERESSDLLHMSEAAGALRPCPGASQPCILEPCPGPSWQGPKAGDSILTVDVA
HSV augment: increases HSV replication in cells; maximum fold increase; HSV replication augmentation in cells, fold increase; 0.005% of 220,000 active;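 active = peak rise of 1.5-fold or more in the series; tested in PC3 cells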;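 also: first round at 10 µM; read as green reporter fluorescence; hits show the peak of a series up to 25 µM; 1 = signal of infected wells without compound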
RGS16-Gao: modulates binding between human RGS16 and Galphao; O15492+P09471; bead-based flow cytometry RGS16-Galphao binding, fluorescence; actives lie on both sides; binding response (% of control), % at 10 µM; 0.38% of 220,000 active; AID 1441;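 active = below 25% or above 175%, edge rows of some plates excepted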;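 also: Galphao activated by GDP with aluminum fluoride before binding; 100% = wells without compound and 0% = beads without RGS; some results beyond the cut were filed as inactive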
Target sequence (O15492 whole entry, looked up): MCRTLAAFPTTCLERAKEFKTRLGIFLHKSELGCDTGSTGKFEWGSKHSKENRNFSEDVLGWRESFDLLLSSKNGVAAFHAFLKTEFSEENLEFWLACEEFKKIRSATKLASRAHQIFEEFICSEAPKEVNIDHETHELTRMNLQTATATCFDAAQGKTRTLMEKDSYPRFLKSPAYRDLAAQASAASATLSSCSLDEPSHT
Target sequence (P09471 whole entry, looked up): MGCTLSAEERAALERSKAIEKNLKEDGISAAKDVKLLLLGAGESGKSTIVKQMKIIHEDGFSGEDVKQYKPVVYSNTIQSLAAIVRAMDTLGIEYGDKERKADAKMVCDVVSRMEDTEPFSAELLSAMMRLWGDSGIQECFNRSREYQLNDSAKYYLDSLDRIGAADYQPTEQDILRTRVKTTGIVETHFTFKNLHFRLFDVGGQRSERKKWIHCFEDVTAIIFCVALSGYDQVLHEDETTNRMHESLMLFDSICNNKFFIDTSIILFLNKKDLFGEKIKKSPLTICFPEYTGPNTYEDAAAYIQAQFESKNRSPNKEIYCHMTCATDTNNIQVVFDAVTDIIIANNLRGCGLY
PKD1 inh: PKD1 (human) kinase inhibition; PKD1 kinase fluorescence polarization assay; inhibition, %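 (about 10 µM by stock and volumes)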; 0.056% of 200,000 active; AID 797;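 active = inhibition of 50% or more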;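 also: controls were vehicle for no effect and a reference inhibitor for full effect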
Insulin prom inh: TRM-6 insulin promoter activity inhibition; TRM-6 cells (human fetal islet line), insulin promoter-eGFP reporter, imaging; reporter expression induced with tamoxifen; inhibition, % at 2 µM; 0.9% of 130,000 active;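 active = inhibition above the mean plus 3 SD, with well images judged a real hit on visual review, cut at about 60% in these data, passing the limit was not always enough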
Insulin prom inh cell count: recorded beside Insulin prom inh, whose call it bears; normalized cell count, %; measured here: cell count, toxicity; reference of the scale not given here;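 cells exposed to compound for 48 h; stained nuclei by imaging scaled within each plate; lower means fewer cells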
HSV augment primary fold: also measured in HSV augment; calls as there; fold increase; compound at 10 µM; measured here: primary screen fold increase 10 uM; tested in PC3 cells;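 GFP signal in the first replicate; 1 = infected wells without compound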
The depositor's hits bear a star; i = inactive; / = no result given.

SMILES	GALR2 ag	HSV augment	HSV augment primary fold	RGS16-Gao	PKD1 inh	Insulin prom inh	Insulin prom inh cell count
CC1=C(C(=O)Nc2ccc(C)cc2)C(c2ccc(N(C)C)cc2)NC(=O)N1 (stereo unspecified)	-1.6	i	0.99	107	0	38	105
CCN1C(=O)/C(=C\N2CCOCC2)SC1=S	-1.4	i	0.97	106	-6	0	210
O=C1CCCC(=NCc2ccco2)C1	-1.2	i	0.92	98	-19	/	/
Cc1nn(Cc2ccccc2)c(C)c1/C=N/NC(=O)c1cccnc1	1.2	i	0.92	48	0	29	97
CC1CCC/C=C/C(=O)c2c(O)cc(O)cc2CC(=O)O1 (stereo unspecified)	/	i	0.51	113	/	/	/
COc1ccc(C(=O)Cn2c(=O)c(CCC(=O)O)nn3c4ccccc4nc23)cc1OC	-2.2	i	0.97	101	1	-8	86
CC1CCCCN1C(=O)Cn1cc(C#N)c2ccccc21 (stereo unspecified)	-1.1	i	0.91	78	2	-462	55
Cc1ccc(N2C(=O)C3C4C=CC(CNC(=S)N5CCN(c6ccccn6)CC5)(O4)C3C2=O)cc1 (stereo unspecified)	/	i	1.2	96	4	19	116
Cc1ccc(C(=O)NNC(=S)Nc2cccc3ccccc23)s1	-1.8	i	0.9	100	-7	17	149
COc1nc(OC)nc(N(C)CCO)n1	0.5	i	0.99	142	1	27	88
CN(C)C(=O)CSc1nnc(-c2cccs2)n1-c1ccccc1	/	i	0.89	96	/	/	/
O=c1c2ccccc2cnn1Cc1n[nH]c(=S)n1-c1ccc(Cl)cc1Cl	-0.6	i	1.1	57	8	-67	40
CCC(=O)Nc1cccc(NC(=S)NC(=O)c2ccccc2C)c1	/	i	0.99	104	-4	-14	90
Cc1nonc1-c1csc(N)n1	/	i	0.97	104	-3	/	/
Cc1nnc(SCC(=O)Nc2ccc(Br)cn2)[nH]c1=O	-2.6	i	0.81	92	-5	-276	54
CCN1C(=O)C(CC(=O)Nc2ccc(OC)cc2)N(Cc2ccco2)C1=S (stereo unspecified)	-0.7	i	0.94	308	3	11	118
Clc1cc(CSc2ccccc2)nc(-c2ccccc2)n1	-1.7	i	1	105	-9	/	/
COc1ccc(C2c3sc(=O)[nH]c3SCC2C(N)=O)cc1 (stereo unspecified)	/	i	0.9	104	/	/	/
COc1ccc2c(c1OC)C(=O)OC2CC(=O)c1ccc(N(C)C)cc1 (stereo unspecified)	-2.6	i	0.95	107	8	15	75
Clc1ccc(-c2nn3c(C4COc5ccccc5O4)nnc3s2)cc1 (stereo unspecified)	-0.8	i	0.82	76	-9	/	/
O=C(COC(=O)[C@H](Cc1ccccc1)NS(=O)(=O)c1ccccc1F)NC1CCCCC1	-0.2	i	0.94	99	-2	/	/
Cc1ccccc1C1NC(=S)NC2=C1C(=O)CC(C)(C)C2 (stereo unspecified)	/	i	0.84	102	14	/	/
COc1ccc(S(=O)(=O)Nc2cc(C(=O)NC3CCCCCC3)ccc2N2CCOCC2)cc1	-2.0	i	0.93	102	-4	/	/
COc1ccc(NC(=O)CSc2nc3ccsc3c(=O)n2CCCCCC(=O)O)cc1	/	i	1.1	104	-3	/	/
CSc1nc2ccc(NC(=O)c3c(-c4ccccc4)noc3C)cc2s1	/	i	0.98	103	/	/	/
CCc1cc(C(=O)NNC(=S)NCc2ccccc2)cs1	0.1	i	0.85	96	-7	-29	129
CC(C)CNC(=O)c1cccc(NC(=O)C(C)C)c1	/	i	0.88	104	2	/	/
Cc1ccc(NC(=O)NNC(=O)Cn2nc(-c3ccccc3)c(-c3ccccc3)c(C#N)c2=O)cc1	-3.3	i	0.64	85	4	/	/
Cc1ccc(NC(=O)C(C)N=C2NS(=O)(=O)c3ccccc32)cc1F (stereo unspecified)	/	i	0.98	96	/	/	/
Cc1nc2nc(SCC(=O)C(C)(C)C)[nH]c2cc1Br	-2.1	i	0.91	116	-6	/	/
c1ccc(N2CCN(Cc3nnnn3C3CCCCC3)CC2)cc1	-1.4	i	0.88	116	-7	/	/
C/C=C/c1ccc(OCCOc2cc(C=O)ccc2OC)c(OC)c1	-1.3	i	0.9	99	-11	/	/
CC(=O)c1ccc(S(=O)(=O)N2CCN(C(=O)/C=C/c3ccc4ccccc4n3)CC2)cc1	/	i	0.87	92	/	/	/
Clc1ccc(-c2cc(C3CCNCC3)[nH]n2)cc1	/	i	0.77	99	-2	38	87
O=C(c1cc(-c2ccncc2)nc2ccc(Br)cc12)N1CCN(Cc2ccc3c(c2)OCO3)CC1	/	i	0.87	100	-9	/	/
Cc1cccc(C(=O)O/N=C(\N)c2cccc([N+](=O)[O-])c2)c1	-1.4	i	0.92	97	-9	0	108
COC(=O)c1ccccc1NC(=O)CN(c1ccc(OC)cc1)S(C)(=O)=O	-1.2	i	0.88	105	2	-88	78
O=C(CCN1CCCCC1)c1ccccc1	-1.0	i	0.93	106	-5	14	117
Cc1ccc(C)c(N2CCN(S(=O)(=O)c3ccc4c(c3)oc(=O)n4C)CC2)c1	-1.2	i	0.52	56	9	/	/
COc1ccc(S(=O)(=O)N2CCC(C(N)=O)CC2)cc1	-2.2	i	1	/	-20	/	/
O=C(O)/C=C/c1ccc(S(=O)(=O)NCc2ccco2)cc1	/	i	0.94	105	-4	/	/
OC1(c2cn(Cc3ccccc3)nn2)CCCCC1	-0.8	i	1	101	-6	/	/
CCCCCC(=O)Nc1nc2ccccc2[nH]1	-1.0	i	0.66	68	-11	-20	148
O=C(COc1ccc(Cl)cc1Cl)NCCCCc1ccccc1	-2.6	i	1.3	105	-4	-14	125
C=CCNC(=O)c1ccc(-n2cccc2)cc1	/	i	0.91	96	-2	/	/

Three structures already listed, ordered by molecular weight, ascending:
SMILES	GALR2 ag	HSV augment	HSV augment primary fold	RGS16-Gao	PKD1 inh	Insulin prom inh	Insulin prom inh cell count
Clc1cc(CSc2ccccc2)nc(-c2ccccc2)n1	-1.7	i	1	105	-9	/	/
Clc1ccc(-c2nn3c(C4COc5ccccc5O4)nnc3s2)cc1 (stereo unspecified)	-0.8	i	0.82	76	-9	/	/
COc1ccc(S(=O)(=O)Nc2cc(C(=O)NC3CCCCCC3)ccc2N2CCOCC2)cc1	-2.0	i	0.93	102	-4	/	/

(continued)
SMILES	GALR2 ag	HSV augment	HSV augment primary fold	RGS16-Gao	PKD1 inh	Insulin prom inh	Insulin prom inh cell count
N/C(=N\OC(=O)CCC1CCCCC1)c1ccc([N+](=O)[O-])cc1	-2.6	/	/	100	-6	20	90
CC1=Nc2cc(C(=O)O)ccc2Sc2c(C)ccc(C)c21	/	i	0.92	115	-3	33	118
O=C(CCSc1ccccc1)Nc1nnc(-c2cccs2)o1	/	/	/	87	2	/	/
N#CCSc1nc2c(sc(=S)n2Cc2ccco2)c(=O)n1-c1ccc(F)cc1	-0.4	i	0.73	112	8	-75	67
CCCN(CCC)S(=O)(=O)c1cccc(-c2csc(C)n2)c1	/	i	1.2	104	/	/	/
CCOC(=O)c1nnn(CC(=O)Nc2cccc(F)c2)c1C(=O)OCC	-2.2	i	1.1	94	-2	26	140
N#C/C(=C(/O)COC(=O)CSc1ccc(Cl)cc1)c1nc2ccccc2[nH]1	-1.7	i	0.88	105	1	-50	96
CCN1CCn2c1nc(N1CCCCC1)nc2=O	0.3	i	0.83	103	-11	-31	77
CN1CCCC1=Nc1c2c(nc3ccccc13)N(C)CC2	0.9	/	/	109	-4	17	139
COc1cc(/C=C/C(=O)c2ccc(Cl)s2)cc(OC)c1O	-1.2	i	0.72	83	-5	20	131
CCNc1nc(N)nc(-c2cc(Cl)ccc2O)n1	-0.3	i	0.79	144	33	62*	74*
Cc1cc(OCC(=O)Nc2ccncc2)ccc1[N+](=O)[O-]	/	i	1	98	-7	/	/
CCc1c(C)c(C#N)c2nc3ccccc3n2c1NCCN(C)C	1.5	i	1.2	100	2	-31	64
COc1ccccc1CN1CCN(C(CC(C)C)c2nnnn2Cc2cccs2)CC1 (stereo unspecified)	/	i	1.1	105	/	/	/
Nc1cccnc1Oc1ccccc1F	/	i	1.2	110	/	/	/

Among those listed so far, these contain a furan ring, fused or not.
SMILES	GALR2 ag	HSV augment	HSV augment primary fold	RGS16-Gao	PKD1 inh	Insulin prom inh	Insulin prom inh cell count
O=C1CCCC(=NCc2ccco2)C1	-1.2	i	0.92	98	-19	/	/
CCN1C(=O)C(CC(=O)Nc2ccc(OC)cc2)N(Cc2ccco2)C1=S (stereo unspecified)	-0.7	i	0.94	308	3	11	118
O=C(O)/C=C/c1ccc(S(=O)(=O)NCc2ccco2)cc1	/	i	0.94	105	-4	/	/
N#CCSc1nc2c(sc(=S)n2Cc2ccco2)c(=O)n1-c1ccc(F)cc1	-0.4	i	0.73	112	8	-75	67

Remaining list, next part
SMILES	GALR2 ag	HSV augment	HSV augment primary fold	RGS16-Gao	PKD1 inh	Insulin prom inh	Insulin prom inh cell count
COc1cccc(NC(=S)NCCC(c2ccccc2)c2ccccc2)c1	-1.7	i	1	109	-14	/	/
CCN(CC)CCn1c(=S)[nH]c2cc(C(=O)N3CC=C(c4ccccc4)CC3)ccc2c1=O	/	i	0.86	95	-2	-43	131
Cn1c(-c2ccc(F)cc2)cnc1NCc1cc2c(cc1[N+](=O)[O-])OCO2	-0.9	i	0.85	110	-3	-5	154
CSc1ccccc1C(=O)Nc1cccc(N(C)S(C)(=O)=O)c1	-0.4	i	0.97	53	-9	-382	105
COc1ccc(-n2nnnc2/C(=C/N(C)C)C(=O)c2ccccc2)cc1	/	i	1	98	/	/	/
CCOC(=O)c1c(C)nc2ccccc2c1-c1ccccc1	0.1	/	/	99	-11	/	/
O=C(/C=C/c1ccco1)NC(=S)Nc1ccc(N2CCOCC2)c(Cl)c1	1.0	i	0.73	98	8	7	39
COc1ccc(CC(=O)Nc2cc(C)on2)cc1OC	-0.2	/	/	111	-2	-8	138
CCOc1ccc(Br)cc1CC(=O)O	0.2	i	0.96	100	6	81*	74*
c1ccc(-n2cc(CN3CCCC(CN4CCCC4)C3)c(-c3ccc4c(c3)OCO4)n2)cc1 (stereo unspecified)	/	i	0.71	107	1	-125	105
CCC(C)(C(=O)NC1CCCCC1)N(CC1CCCO1)C(=O)CNC(=O)c1ccccc1 (stereo unspecified)	-1.8	i	0.96	94	-6	-11	93
O=C(Nc1cnn(Cc2ccc(Cl)cc2Cl)c1)c1noc2c1CCCC2	-0.1	i	0.79	102	-9	0	136
CCN(CC)S(=O)(=O)c1ccc(N2CCOCC2)c(NS(=O)(=O)c2cc(C(C)(C)C)ccc2C)c1	-1.4	i	0.79	95	-6	-3	108
CCOC(=O)c1sc(=S)n(-c2ccc(C)cc2)c1N	/	i	1.1	96	1	-17	118
CC(NC(=O)c1ccc(=O)oc1)c1ccccc1 (stereo unspecified)	-1.4	i	0.87	107	-9	/	/
CC(C)CNC(=S)NNC(=O)c1csc2ccccc12	-2.2	i	0.7	101	-3	-21	49
CCc1nc2c(c(SC)nn2-c2ccccc2)c(N)c1C(=O)OC	-1.5	i	1.1	107	2	/	/
COc1ccc(N2CCN(CCOc3ccc4c(C)cc(=O)oc4c3)CC2)cc1	-0.9	i	0.94	107	-5	-46	146
Nc1nc(Nc2ccc(Cl)cc2)nc(NCCO)c1[N+](=O)[O-]	/	i	0.9	99	/	/	/
CCn1c(Cc2ccccc2)nnc1SCC(=O)Nc1ccccc1O	/	i	0.93	105	3	/	/
O=C(CCCCl)NC(=S)Nc1cc(C(F)(F)F)ccc1N1CCOCC1	0.1	i	0.87	99	1	2	108
Cc1ccc(N2C(=O)CC(NNC(=O)c3cccc(S(=O)(=O)N4CCCC4)c3)C2=O)cc1 (stereo unspecified)	-1.4	i	0.95	101	3	-35	156
COc1cc2c(cc1OC)C(=S)NC1(CCCC1)C2	/	i	0.98	100	-1	54	121
Cc1cccc(-n2c(CNC(=O)c3cccc([N+](=O)[O-])c3C)n[nH]c2=S)c1	/	i	1	111	-5	/	/
CN(C)c1ccc(/C=N/NC(=O)C(O)(c2ccccc2)c2ccccc2)o1	-1.4	i	1.1	84	-4	-22	71
CN(CCc1ccccn1)C(=O)CC1C(=O)NCCN1Cc1ccc(-c2ccccc2)cc1 (stereo unspecified)	/	i	0.94	101	3	/	/
Cc1c(NC(=O)c2c(F)c(F)c(F)c(F)c2F)c(=O)n(-c2ccccc2)n1C	-1.7	i	0.96	101	-2	48	106
CCn1c(=O)c(=O)[nH]c2cc(C(=O)N3CCN(c4ccccc4F)CC3)ccc21	-2.2	i	0.83	98	-10	-49	160
CC(=O)Nc1sc(N)nc1-c1ccccc1	-3.4	i	0.91	98	-1	/	/
CSc1nsc2nc(=O)c(/C=C3\C=Nc4ccccc43)c(N)n12	/	i	0.82	102	1	/	/
CCOC(=O)c1nc(NCc2ccccc2F)c2ccccc2n1	/	i	0.95	103	-1	/	/
CCOC(=O)C1CC2CC(C1)CN(C(=O)C1CCCCC1)C2 (stereo unspecified)	/	i	0.98	103	-3	/	/
